RE007 growth inh: less growth of the S. pombe RE007 Vpr strain; Potency, µM (series often up to 92.2 µM), for the others: at the highest dose activity change, negative = less growth; 360,000 tested, 0.21% active; S. pombe RE007 Vpr strain, BacTiter-Glo ATP luminescence, 24 h; control for the full effect not named in the record; active = well fitted falling curve with a large enough effect; inconclusive = small, poorly fitted or top-dose-only effect; inactive = no such curve, though single readings can be large or run the other way;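 also: nearly all actives have a fitted effect of over 50% in size; the assay follows cell death caused by Vpr and the record does not say whether a fall means rescue or toxicity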
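Fission yeast strain RE007, carrying one chromosomally integrated HIV-1 vpr copy, was seeded at OD 0.01 in PMG+AL medium with 23 nL pinned compound. After 24 h at 30 °C and 99% humidity, viability was read by BacTiter-Glo luminescence.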
2A StopGo: lowers the luciferase signal of an FMDV 2A StopGo reporter; Potency, µM (highest dose often 57.9 µM), without a hit: at the highest dose signal change, negative = less light; human cells with a luciferase reporter of 2A StopGo recoding; control for the full effect not named in the record; 410,000 tested, 1.2% active; active = well fitted falling curve with a large enough effect; inconclusive = small, poorly fitted or top-dose-only effect; inactive = no such curve, though single readings can be large or run the other way; tested in HEK293T cells; also: nearly all actives have a fitted effect of over 45% in size; luciferase light after 4 h
An asterisk follows results filed as active; ? = inconclusive; [ ] = dose if it differs, or a comment. % is scaled to controls: 0 for no effect and ±100 for the full control effect; potency is read from the fitted curve at half-maximal effect. These rows are one share of the data. The share of hits here may be higher or lower than overall.

compound | RE007 growth inh | 2A StopGo
COC(=O)[C@@]12C[C@@H](CC(=O)NCc3ccccc3)C(=O)N(CCc3ccc(OC)c(OC)c3)C1=CCC(C)(C)C2 | 0% | -8%
O=C(Nc1c(-c2ccccc2)[nH][nH]c1=O)c1ccccc1 | 11% | -1%
COC(=O)c1cc2c(n(Cc3ccccc3)c1=O)CCCC2=O | 37% | -13%
COc1cc(-c2cc(C(=O)O)c3cc4ccccc4cc3n2)cc(OC)c1OC | -3% | -3%
O=C(NC(c1ccc(Cl)cc1)c1cnccn1)C1CCN(Cc2ccccc2)CC1 (stereo not drawn) | 4% | -17%
O=C(Nc1ccccc1OC(F)F)c1ccc(N2CCCC2=O)cc1 | 5% | 21%
CCN1C[C@@H]2[C@@H]3C(=O)N(Cc4ccccc4)C(=O)[C@@H]3[C@](Cc3ccccc3)(C1=O)N2C(=O)c1ccccc1 | -13% | 0%
O=C1NC[C@@H](CCCCN2C[C@H](Cc3ccc(O)cc3)N(CCc3ccc(O)cc3)C(=O)C2=O)N(CC2CCCCC2)C1=O | 3% | -22%
COc1ccc(CN2C(=O)COc3ccccc3C2c2nc3ccccc3[nH]2)cc1 (stereo not drawn) | 4% | -6%
CCc1nc2ccc(C(=O)N3CCN(C(C)=O)CC3)cn2c1N(CC)C(C)=O | -8% | -11%
CNc1cncc(-c2cccc(C(=O)NC3CC3)c2)n1 | 18% | 22%
O=c1c2cc(F)ccc2sn1-c1ccccc1Cl | ? | ?
CC(=O)c1cccc(NC(=O)C(C)Sc2nnc3ccccn23)c1 (stereo not drawn) | 10% | -7%
CCNC(=O)C1(C)CCCN(C(=O)c2cc(-c3cccs3)oc2C)C1 (stereo not drawn) | -6% | -17%
CN(c1ccccc1)S(=O)(=O)c1cccc(NC(=O)C2=NN(c3ccccc3)C(=O)CC2)c1 | -11% | ?

A second format for 4 compounds above:
O=c1c2cc(F)ccc2sn1-c1ccccc1Cl
  RE007 growth inh: ?; 2A StopGo: ?
COC(=O)c1cc2c(n(Cc3ccccc3)c1=O)CCCC2=O
  RE007 growth inh: 37%; 2A StopGo: -13%
CCNC(=O)C1(C)CCCN(C(=O)c2cc(-c3cccs3)oc2C)C1 (stereo not drawn)
  RE007 growth inh: -6%; 2A StopGo: -17%
O=C(Nc1c(-c2ccccc2)[nH][nH]c1=O)c1ccccc1
  RE007 growth inh: 11%; 2A StopGo: -1%

Carrying on:
compound | RE007 growth inh | 2A StopGo
COCOc1cccc(CN2CCC(C)(Oc3cccc(C#N)c3)C2)c1 (stereo not drawn) | -10% | -10%
CC1(C(=O)NCc2ccccc2)Cc2c(-c3cccc(C(N)=O)c3)ccnc2O1 (stereo not drawn) | 4%[18.4 µM] | 4%
O=C(NCCCn1ccnc1)c1[nH]c(C(F)(F)F)nc1-c1ccccc1 | -1% | -20%
CCOC(=O)[C@]12CCCC=C1N(Cc1ccc(Cl)cc1Cl)C(=O)[C@H](CC(=O)N1CCC(c3ccccc3)CC1)C2 | -3% | ?
C[C@H](CO)N1C[C@H](C)[C@H](CN(C)S(=O)(=O)c2ccccc2C#N)OCc2cnnn2CCCC1=O | 10% | -17%
CCCCCCCCN1C(=O)[C@H](CC(=O)NCCCCc2ccccc2)C[C@@]2(C(=O)OC)CC(C)(C)CC=C12 | 0% | -25%
Cc1ccc2nc(-c3cccc(Br)c3)c(Cc3ccccc3C(F)(F)F)n2c1 | -12% | 72%[activator]
COCCCN1C(=O)C(CC(=O)NCCCN(C)C)CC(C(=O)N(C(C)C)C(C)C)=C1C (stereo not drawn) | 2% | -12%
N#Cc1ccc(C(=O)N2CCCCC2c2cc(C(=O)Nc3cccc(C#N)c3)no2)cc1 (stereo not drawn) | 3%[18.4 µM] | -7%
CN(C)c1cccc(NC(=O)C2Cc3c(-c4ccc(Cl)cc4)ccnc3O2)c1 (stereo not drawn) | -16% | -26%
FC(F)(F)c1cccc(-c2cc3nc(NCCOc4ccccc4)ccn3n2)c1 | ? | 32%[activator]
CN1C[C@@H]2[C@@H]3C(=O)N(C)C(=O)[C@@H]3[C@](Cc3ccccc3)(C1=O)N2C(=O)c1ccc(F)cc1 | 18% | -2%
Nc1ccn([C@@H]2O[C@H](CNCc3cccc4c3sc3ccccc34)[C@@H](O)[C@H]2O)c(=O)n1 | -2% | 2%
Cc1nc2cc(NC(=O)C3(C)CCCN(C(C)C)C3)ccc2o1 (stereo not drawn) | 1% | 9%
COc1ccc(OCC(=O)N2CCCC(Nc3ccc(C)c(C)c3)C2)cc1 (stereo not drawn) | 20% | -9%

Profiles as entered above:
COCOc1cccc(CN2CCC(C)(Oc3cccc(C#N)c3)C2)c1 (stereo not drawn) is listed as RE007 growth inh = -10%; 2A StopGo = -10%
Cc1ccc2nc(-c3cccc(Br)c3)c(Cc3ccccc3C(F)(F)F)n2c1 is listed as RE007 growth inh = -12%; 2A StopGo = 72%[activator]

Next part:
compound | RE007 growth inh | 2A StopGo
CN(C)c1ccc(-c2ccnc3c2CC(C)(C(=O)NCc2ccco2)O3)cc1 (stereo not drawn) | -2% | 0%
Nc1cc(=O)n(Cc2ccco2)c(=S)[nH]1 | 17% | 5%
COc1ccc(C(C(=O)NC(C)(C)C)n2c(-c3ccc(C(F)(F)F)cc3)nc3ccccc32)cc1 (stereo not drawn) | -11% | 2%
Cc1ccc(-n2c(SCC(=O)O)nc3sc4c(c3c2=O)CC(C)(C)SC4)cc1 | 5% | -8%
O=C1Nc2cc(C(=O)NCCCN3CCCC3)ccc2S/C1=C/c1cccc(Cl)c1 | 14% | -4%
Cc1nn(-c2ccccc2)c(C)c1/C=N/NC(=O)c1ccc(F)cc1 | -4% | 45%[activator]
CCC[C@H]1CN(c2ccccc2)C(=O)[C@@H]1CC(=O)NC | -19% | -17%
O=C(NN1CCOCC1)c1ccc(Cl)cc1Cl | 0% | 1%
C[C@H]1COC[C@@H](C/C=C/c2ccccc2)N1c1ccccc1 | 5% | -12%
CCc1nc2ccc(C(=O)N3CCN(C(C)=O)CC3)cn2c1N(C=O)Cc1ccc(OC)cc1 | 5%[18.4 µM] | -14%
Nc1[nH]c(C(=O)c2ccc(Br)cc2)c(-c2ccc(Br)cc2)c1C(=O)NCCc1c[nH]c2ccccc12 | 5% | -8%
O=C(NC1CC1)c1ccc(-c2cnc3cccnn23)cc1 | 9% | 33%[activator]
Cc1cccc(C)c1NC(=O)C(c1ccc(-c2ccccc2)cc1)n1c(=O)c(-c2ccco2)nc2ccccc21 (stereo not drawn) | 1% | -4%
COc1ccc(NC(=O)c2cc3ccccc3oc2=O)cc1 | 1% | -88%
CC(C)CNC(=O)C1(C)CCCN1Cc1ccc(S(C)(=O)=O)cc1 (stereo not drawn) | 5%[18.4 µM] | -12%
CCCCNc1c(-c2cccnc2)nc2nc(C)cc(C)n12 | -24% | -20%
CC(=O)NNc1nc(-c2ccccc2)c2cc(Cl)ccc2n1 | -9% | -19%
C[C@@H]1CN([C@H](C)CO)C(=O)CCCn2nncc2CO[C@H]1CN(C)C(=O)Oc1cccc2ccccc12 | 8% | -5%
C[C@@H]1O[C@H](C2CCCC2)CC2=C1C(=O)OC(C)(C)O2 | 1% | -21%
COC(=O)CN1C(=O)[C@@H]2[C@H](C1=O)[C@@H]1CC(C(=O)OC)=C[C@@H](C(=O)OC)[C@@H]3C1=C(C(=O)[C@]3(C)NC(=O)c1ccccc1)[C@@H]2C | 3% | -13%
O=C(NCc1ccc(C(F)(F)F)cc1)C1CC(c2ccc(C(F)(F)F)cc2)=NO1 (stereo not drawn) | -15% | -15%
COc1cccc(C(=O)NNS(=O)(=O)c2ccccc2)c1 | -14% | 8%
C[C@H](CO)N1C[C@H](C)[C@@H](CN(C)C(=O)C2CCCCC2)OCc2cn(nn2)CCCC1=O | 2% | -12%
COc1ccc(OC)c(NC(=O)C2(C)CCN2CCc2ccccc2)c1 (stereo not drawn) | -10% | ?
COc1ccc(C(=O)N2CCCC(C)(C(=O)NS(=O)(=O)C3CC3)C2)cc1 (stereo not drawn) | -9% | -18%
Cc1ccc(C)c(N2C(=O)c3ccc(C(=O)Nc4ccccn4)cc3C2=O)c1 | 1% | -3%
Cc1ccc(S(=O)(=O)N2C[C@H]3C(=O)C[C@@H](c4ccccc4)N(S(=O)(=O)c4ccc(C)cc4)[C@H]3C[C@H]2c2cccc(Cl)c2)cc1 | 4% | -15%
Cc1nccn1-c1ccc(NC(=O)[C@H]2O[C@@H](n3ccc(=O)[nH]c3=O)[C@H](O)[C@@H]2O)cc1 | 20% | -14%
COc1cc2ccc(C=O)cc2cc1OC | -14% | -1%
CCC(C)CN1C(=O)CN(S(C)(=O)=O)CC1(C)C(=O)Nc1c(C)cccc1C (stereo not drawn) | -13% | -21%
COC(=O)C1(C)CCCC2(C)C3CCC(C(C)C)C(CO)C3C(CO)CC12 (stereo not drawn) | 1% | 0%
CCC(=O)N1CCC(C)(C(=O)Nc2nccc3ccccc23)C1 (stereo not drawn) | 7% | -15%
O=S(=O)(c1cccs1)N1CCCCC1 | -3% | 0%
CC(=O)N(c1ccccc1)c1ccccc1[N+](=O)[O-] | 2% | -8%
O=S(=O)(O)c1cccc2cccc(Nc3ccccc3)c12 | 2% | 3%
Cc1cc(NC(=O)CSCC(=O)OCC(=O)c2ccc(Br)cc2)no1 | 12% | -21%
O=C(NCc1ccccc1)/C(=C\c1ccc(F)cc1)NC(=O)c1ccco1 | -4% | 2%
COC(=O)C1=CN(c2ccc(OC)cc2)C(N)=C(C#N)C1c1cccc2ccccc12 (stereo not drawn) | -8% | 25%
CCc1nc2ccc(C(=O)Nc3cccc(OCC(=O)N(C)C)c3)cn2c1N(CC)CCN(C)C | -8%[18.4 µM] | -8%
CCOC(=O)[C@]12CCCC=C1N(Cc1ccc3c(c1)OCO3)C(=O)[C@H](CC(=O)NCCCN1CCCC1=O)C2 | 0% | -7%
C=CCSc1nnc(NC(=O)c2ccc3c(c2)OCCO3)s1 | -6% | -8%
O=[N+]([O-])c1ccc(COc2ccccc2CN2CCCC2)cc1 | -18% | -27%
C[C@H](CO)N1C[C@H](C)[C@@H](CN(C)S(=O)(=O)c2ccc3c(c2)OCCCO3)OCc2cnnn2CCCC1=O | -1% | -17%
CN(Cc1cnn(-c2ccccc2)c1)C(=O)c1ccc(S(=O)(=O)NCc2ccco2)cc1 | 0% | -7%
Cc1ccc(S(=O)(=O)N2CCCCC2)cc1NC(=O)C1COc2ccccc2O1 (stereo not drawn) | 20% | ?
CN(C)c1ccc(-c2csc(C(O)c3ccccc3)n2)cc1 (stereo not drawn) | 8%[18.4 µM] | 5%
O=C1C=C(N2CC2)c2ccccc2C1=O | -25% | ?
COc1ccc(-c2cc(C(=O)N(C)CC(=O)Nc3ccccc3C(F)(F)F)c3ccccc3n2)cc1OC | -1% | -16%
O=c1[nH]c2ccccc2n1C1CCN(C(c2nnnn2C2CCCC2)C2CC2)CC1 (stereo not drawn) | 13% | -16%
COC(=O)C[C@H]1C[C@H]2c3cc(NC(=O)Nc4ccc(C(F)(F)F)cc4)ccc3O[C@H]2[C@@H](CO)O1 | -21% | ?
CC(C)(C)OC(=O)N1CCC(C(=O)Nc2ccc(C(=O)N3CCCC3)cc2)CC1 | 2% | ?
COc1ccc(Cc2nc3ccc(C(=O)NCCc4ncccc4C)cc3o2)cc1OC | -10% | ?
O=C(NCCN1CCC(n2c(=O)[nH]c3ccccc32)CC1)c1cccc2c1-c1ccccc1C2=O | -9% | -28%
O=C(NC(c1ccc(F)cc1)c1ccc2ccccc2n1)C1CCN(CCOc2ccc(Cl)cc2)CC1 (stereo not drawn) | -8% | -11%
COc1ccc(NC(=O)CCCOc2ccc(C(C)=O)cc2)cc1S(=O)(=O)N1CCCCC1 | -14% | ?
COc1cccc(N2CCN(C(=O)C3CCN(C(=O)Nc4ccccc4)CC3)CC2)c1 | -17% | -23%
COc1ccc(-c2nc3c(C)cc(Br)cn3c2CC2CCCCC2)cc1OC | -22% | -19%
COc1cccc(-c2cnc(C(O)c3ccc(CN4CCCC4)cc3)[nH]2)c1 (stereo not drawn) | -17%[18.4 µM] | -3%
CNC[C@@H]1Oc2cc(Br)ccc2S(=O)(=O)N([C@@H](C)CO)C[C@@H]1C | 1% | 0%
CC1(C)C2CC[C@]3(C)C(CC=C4[C@@H]5C[C@](C)(CO)CC[C@]5(C(=O)O)CC[C@]43C)[C@@]2(C)CC[C@@H]1O (stereo partly drawn) | -9% | -13%
COc1ccc(Cn2cc(CN(C)C3CN(Cc4cn(Cc5ccc(OC)cc5)nn4)S(=O)(=O)C3)nn2)cc1 (stereo not drawn) | 10% | -24%
O=C1C(O)=C(O)C(=O)c2ccccc21 | -16% | ?
Cc1cn([C@H]2C[C@H](O)[C@@H](CNCc3ccccc3OCCCN3CCOCC3)O2)c(=O)[nH]c1=O | ? | -13%
